Rango release inh: inhibition of RanGTP-driven Rango-importin beta dissociation; AID 540253; O95149+P62826; 340,000 tested, 0.071% active; Potency, µM (series often up to 46.1 µM), for the others: at the top dose activity change, negative = inhibition; Biochemical FRET Rango-importin beta, RanGTP-induced dissociation; active means falling FRET ratio curve, often poorly fitted, with flat reads before Ran was added; inconclusive means other falling curves, or compound fluorescence or quenching; inactive means flat or rising ratio curve;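 note: potency is the fitted concentration of half-maximal effect; % of control where 0% means no effect; nearly all actives have a fitted effect of over 45% in size; -100% = wells without RanGTP and RCC1; the record marks most hits as doubtful in a second field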
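Rango (0.1 uM)–importin beta (0.25 uM) complex; RanGTP-RCC1 trigger; 45 min RT; CFP/YFP FRET read.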
Rango-impB inh: Rango-importin beta binding inhibition. Rango CFP/YFP FRET sensor + importin beta, 45 min. Potency, µM (series often up to 92.2 µM), without a hit: at the highest dose inhibition of complex formation. Q14974. 340,000 tested, 0.031% active; active = rising FRET ratio curve, often small or poorly fitted; inconclusive = mostly compound fluorescence or quenching in the first reads; inactive = flat curves in all reads;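 note: potency is the fitted concentration of half-maximal effect; 0% = DMSO wells and 100% = buffer wells lacking importin beta; nearly all actives have a fitted effect of over 15% in size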
Target sequence (Q14974 whole entry, looked up): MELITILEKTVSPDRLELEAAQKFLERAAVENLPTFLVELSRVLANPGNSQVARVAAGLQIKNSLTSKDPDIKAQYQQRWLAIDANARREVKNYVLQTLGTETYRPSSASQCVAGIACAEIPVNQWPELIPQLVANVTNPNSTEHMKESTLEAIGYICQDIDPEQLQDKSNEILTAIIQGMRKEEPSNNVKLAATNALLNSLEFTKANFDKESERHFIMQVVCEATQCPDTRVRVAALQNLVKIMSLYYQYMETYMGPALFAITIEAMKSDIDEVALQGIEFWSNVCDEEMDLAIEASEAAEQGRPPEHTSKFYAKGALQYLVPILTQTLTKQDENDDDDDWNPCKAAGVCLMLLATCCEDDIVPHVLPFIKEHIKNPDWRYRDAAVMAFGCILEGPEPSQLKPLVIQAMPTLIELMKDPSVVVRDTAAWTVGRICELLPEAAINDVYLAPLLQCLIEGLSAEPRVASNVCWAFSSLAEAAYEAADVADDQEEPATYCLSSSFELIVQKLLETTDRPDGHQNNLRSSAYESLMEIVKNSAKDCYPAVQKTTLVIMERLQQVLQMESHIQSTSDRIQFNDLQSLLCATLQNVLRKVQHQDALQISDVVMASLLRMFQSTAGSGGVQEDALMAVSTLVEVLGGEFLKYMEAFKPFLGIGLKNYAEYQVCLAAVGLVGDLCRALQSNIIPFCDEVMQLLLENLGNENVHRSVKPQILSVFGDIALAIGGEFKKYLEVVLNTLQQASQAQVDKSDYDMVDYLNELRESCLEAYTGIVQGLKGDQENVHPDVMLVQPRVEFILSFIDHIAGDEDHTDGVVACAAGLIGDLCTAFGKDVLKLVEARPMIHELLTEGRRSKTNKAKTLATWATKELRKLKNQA
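Inhibition scored from the CFP 486 nm/YFP 530 nm FRET ratio 45 min after adding 0.125 microM importin beta to 50 nM Rango biosensor preincubated 5 min with compound (room temperature, PBS with DTT, Tween-20, BSA). No-importin wells as positive control.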
miR-21 reporter: raises the signal of a miR-21 reporter; HeLa miR-21 FLuc reporter, luciferase, 48 h; Potency, µM (series often up to 38.3 µM), inactives show at the top dose reporter change, positive = more light; 340,000 tested, under 10 active; AID 2288; active = well fitted rising curve with a large enough effect; inconclusive = small, poorly fitted or top-dose-only effect; inactive = no such curve, though single readings can be large or run the other way;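 note: % of control where 0% means no effect; miR-21 action dims this reporter so a rising signal means less miR-21 action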
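Using DMEM plus 10% FBS, HeLa miR-21-FLuc cells are incubated with test compounds (final up to about 40uM) for 48 hours; firefly luciferase signal is then imaged following reagent-mediated lysis.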
GLA inh pH 4.5: inhibitors of human alpha-galactosidase A at pH 4.5 | activity change, negative = inhibition, % at 105 µM | 230,000 tested, under 10 active | purified enzyme, 4-MU-alpha-Gal fluorescence, pH 4.5 | P06280; inconclusive = small, poorly fitted or top-dose-only inhibition, or a rising curve; inactive = flat fitted curve, though single readings scatter; no compound was filed as active;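 note: 0% = full activity with enzyme and -100% = basal without enzyme; dose as in the result columns while the protocol names 77 µM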
* = called active by the depositor; ? = inconclusive; nt = no result given; & = joins results of further samples; [ ] = remark or other dose. Some of the compounds tested; rates above refer to the full screens.

cpd	compound	Rango release inh	Rango-impB inh	miR-21 reporter	GLA inh pH 4.5
1	O=C(CNC(=S)N(Cc1ccccc1)Cc1cccnc1)NCc1ccccc1	41%	2.5%	6%	-2
2	CN(Cc1cccc(F)c1)C(=O)c1ccc(S(=O)(=O)N2CCCCCC2)cc1	1%	1.0%	nt	nt
3	Nc1cc(C(=O)OCC(=O)Nc2ccc(N3CCOCC3)cc2)ccc1Cl	1%	6.3%	nt	nt
4	COc1cccc2sc(N3CCN(C(=O)C4COc5ccccc5O4)CC3)nc12 (stereo not given)	4%	3.5%	nt	nt
5	O=C1Cc2cc(S(=O)(=O)Nc3cccc(F)c3)ccc2N1	-6%	-2.2%	nt	nt
6	Cc1ccc(NS(=O)(=O)c2ccc3c(c2)NC(=O)C(C)C(=O)N3)c(Cl)c1 (stereo not given)	-14%	-1.0%	3%	nt
7	COc1cc(NC(=O)C2CCN(S(=O)(=O)c3cnc[nH]3)CC2)cc(OC)c1OC	9%	-4.1%	1%	6
8	O=C(O)C1=C[C@@H](c2ccc3c(c2)OCO3)C[C@@H](OCc2ccc(CO)cc2)O1	-13%	-2.4%	-2%	6
9	C=CCOC(=O)c1ccccc1C(=O)OCC1CO1 (stereo not given)	-4%	-2.5%	nt	nt
10	Cc1ccc(S(=O)(=O)N2CCN(C(=O)N3CCOCC3)C2C(C)C)cc1 (stereo not given)	0%	-1.0%	-2%	-10
11	CC(C)C1CC(=O)NC(SCC(=O)Nc2ccc(Br)cc2)=C1C#N (stereo not given)	11%	-0.1%	0%	-5
12	O=C(CN(c1ccc(F)cc1)S(=O)(=O)c1ccc2c(c1)OCCO2)Nc1cccnc1	-3%	-1.8%	3%	4

Quoted from the listing.
COc1cc(NC(=O)C2CCN(S(=O)(=O)c3cnc[nH]3)CC2)cc(OC)c1OC | miR-21 reporter: 1%
O=C1Cc2cc(S(=O)(=O)Nc3cccc(F)c3)ccc2N1 | Rango-impB inh: -2.2%
Cc1ccc(S(=O)(=O)N2CCN(C(=O)N3CCOCC3)C2C(C)C)cc1 (stereo not given) | GLA inh pH 4.5: -10
COc1cccc2sc(N3CCN(C(=O)C4COc5ccccc5O4)CC3)nc12 (stereo not given) | Rango-impB inh: 3.5%

Later entries.
cpd	compound	Rango release inh	Rango-impB inh	miR-21 reporter	GLA inh pH 4.5
13	CC(C)C(=O)N1CCN(c2nc3ccc(Cl)cc3s2)CC1	4%	0.8%	-23%	nt
14	O=C(CSc1ccccc1)Nc1ccccc1N1CCOCC1	0%	2.3%	-11%	8
15	Cc1ccc[n+](C(C)C(=O)Nc2ccc(C)c(C)c2)c1 (stereo not given)	-11%	1.9%	0%	nt
16	CCN(c1ccccc1)S(=O)(=O)c1ccc(Cl)c(NC(=O)CN2CCN(C)CC2)c1	-24%	?	nt	nt
17	O=C(Nc1ccc(NC(=O)C2CCCN2C(=O)OCc2ccccc2)cc1)c1ccco1 (stereo not given)	5%	1.1%	-3%	-1
18	COc1ccc(-c2nc3ccccc3c(=O)n2CC(C)C)cc1	-4%	-2.0%	0%	nt
19	CCCC(=O)Nn1cnc2c(c1=O)C1(CCCCC1)Cc1ccccc1-2	7%	-0.7%	-5%	2
20	CCC1=C2CC[C@H]3C(=O)N(CC(=O)OC)C(=O)[C@H]3[C@H]2[C@@]2(C)C(=NCC(=O)OC)OC(=O)N2C1=O	-7%	0.5%	4%	0&1
21	CCc1ccc(NC(=O)CN(c2ccc3c(c2)OCO3)S(=O)(=O)c2c(C)noc2C)cc1	-6%	-0.9%	-7%	-9
22	FC(F)(F)c1cccc(NC(=S)NCc2ccccn2)c1	-5%	-11%	-7%	-1
23	S=C(c1ccc(Br)cc1)N1CCN(Cc2ccccc2)CC1	1%	0.0%	2%	3
24	CSCc1cc(N(C)c2ccccc2)nc(-c2ccccn2)n1	?	8.8%	?	nt

Reprinted from the part before: two entries, followed by the next part.
cpd	compound	Rango release inh	Rango-impB inh	miR-21 reporter	GLA inh pH 4.5
23	S=C(c1ccc(Br)cc1)N1CCN(Cc2ccccc2)CC1	1%	0.0%	2%	3
24	CSCc1cc(N(C)c2ccccc2)nc(-c2ccccn2)n1	?	8.8%	?	nt
25	O=C(CCSc1ccc(Cl)cc1)N1CCCCCC1	15%	-0.7%	-52%	-14
26	Cn1cccc1/C=N/N1CCN(c2ccccn2)CC1	-8%	-0.2%	-43%	3
27	COc1ccc(C)cc1S(=O)(=O)N(C)CC(=O)N1CCN(C)CC1	-1%	0.9%	1%	4
28	FC(F)(F)COc1nc(N/N=C/c2cccnc2)nc(N2CCCCC2c2ccccn2)n1 (stereo not given)	-5%	2.0%	7%	-3
29	Cc1ccc(Nc2nc(-c3sc(NC(=O)c4ccc([N+](=O)[O-])cc4)nc3C)cs2)cc1	nt	nt	-7%	1
30	CCC1CCCCN1C(=S)Nc1cccc(S(=O)(=O)N(C)C)c1 (stereo not given)	7%	3.5%	0%	-6
31	COc1ccc2c(c1)[nH]c1c(Cl)ncnc12	-9%	-2.2%	10%	-1
32	CN(C)S(=O)(=O)c1cc(NC(=O)CN2CCCc3ccccc32)ccc1Cl	-6%	-1.1%	2%	-7
33	O=C(/C=C/c1ccco1)Nc1ccc2nn(-c3ccccc3)nc2c1	-14%	-0.3%	-32%	4
34	COc1ccc(CC(=O)NCc2ccc(Cl)cc2)cc1S(=O)(=O)N1CCOCC1	-14%	-0.4%	nt	nt
35	OC(COc1ccccc1)CN1CCC(Cc2ccccc2)CC1 (stereo not given)	3%	0.4%	1%	nt
36	O=C(O)CNC(=S)N(Cc1ccccc1Cl)C1CCCCC1	-16%	4.3%	-3%	3[21.1 µM]
37	O=C(NC(=O)c1ccccc1O)c1ccc(C(F)(F)F)cc1	-6%	0.5%	-20%	-2
38	COc1ccc(NC(=O)CN(C)C(=O)c2ccc3ccccc3c2)cc1	1%	4.8%	nt	nt
39	CCN(C(=O)c1cc2c(=O)[nH]c3ccc(C)cc3c2s1)c1ccc(F)cc1	11%	-2.3%	-2%	1
40	Cc1ccsc1C(=O)Nc1ccc(C(=O)O)cc1	-5%	1.8%	-13%	-2
41	O=C(NC(Cc1ccccc1)C(=O)O)/C(=C\c1ccccc1)NC(=O)c1ccco1 (stereo not given)	?	?	1%	nt
42	CCOc1ccc2nc(NCCCNS(=O)(=O)c3ccc(F)cc3)c(C#N)cc2c1	?	?	nt	nt
43	CCn1c(C(=O)OC)cc2c1ccn2-c1ccc(F)cc1	-14%	-4.6%	-59%	-2
44	Cc1cc2c(=O)n(CC(=O)NCC(=O)N3CCN(Cc4ccccc4)CC3)cnc2s1	16%	-1.9%	-1%	3
45	CC1CCCC(C)N1C(=O)COC(=O)CNC(=O)c1sc2ccccc2c1Cl (stereo not given)	6%	-2.0%	nt	nt
46	CCc1cc2c(SCC(=O)c3cccs3)ncnc2s1	8%	4.3%	-34%	-6
47	COc1ccc(C(=O)NNC(=O)CSc2nnc(COc3ccccc3)n2C)cc1	13%	0.3%	3%	5
48	COc1ccccc1/C=C/C(=O)c1ccc(NC(C)=O)cc1	4%	?	9%	-17
49	CC(=O)N1CCCC(C(=O)c2ccc3c4c(cccc24)CC3)C1 (stereo not given)	-4%	-0.1%	-17%	-27
50	NC(=O)CC(NC(=O)c1ccccc1)c1ccc(NCCc2cccc(F)c2)c([N+](=O)[O-])c1 (stereo not given)	-11%	3.4%	1%	-4
51	Cc1ccc(C(c2nnnn2C(C)(C)C)N2CCc3ccccc3C2)cc1 (stereo not given)	nt	nt	-4%	3
52	CCOC(=O)C1CCN(C(=O)Nc2ccc(OC)c(OC)c2)CC1	-2%	4.1%	-7%	-3
53	COc1ccc(NC(=O)c2sc3nc(C)nc(N4CCN(c5ccccn5)CC4)c3c2C)c(OC)c1	-2%	4.8%	0%	nt
54	CC(=O)N(CCC1(C(C)C)CCOC(C)(C)C1)C(C)c1cccs1 (stereo not given)	19%	-7.1%	16%	-3
55	CCOc1ccc(N(Cc2ccc(OC)cc2)C(=O)c2ccco2)cc1	-1%	0.6%	5%	-10
56	COc1ccc(NC(=O)NNC(=O)c2cc(C3CC3)nc3ccccc23)c(OC)c1	1%	1.8%	12%	nt
57	COc1ccc(NC(=O)COC(=O)CC2CCCC2)cc1	-1%	0.2%	nt	nt
58	O=C(CCNC(=O)c1ccccc1Cl)NCCc1ccc(C(F)(F)F)cc1	0%	0.2%	-5%	nt
59	N#C/C(=C\c1cccc([N+](=O)[O-])c1)C(=O)NCc1cccnc1	3%	-1.0%	-2%	5
60	CN(CC#CCC(c1ccccc1)c1ccccc1)C(C)(C)C	2%	3.6%	-1%	-9
61	COc1ccc(-c2cc(C(F)(F)F)nc(SCC(=O)N3CC(C)OC(C)C3)n2)cc1OC (stereo not given)	-2%	1.1%	-7%	2
62	COCCNC(=O)c1c(CSc2ccc(Cl)cc2)noc1C(=O)NCc1ccccc1	32%	-0.1%	nt	nt
63	CC(C)Cn1c(CN2CCN(C(=O)c3ccco3)CC2)nc2c1c(=O)n(C)c(=O)n2C	-9%	2.2%	-8%	8
64	CCOC(=O)C1=C(C)NC(=O)C1(NC(=O)c1cccnc1)C(F)(F)F (stereo not given)	-20%	0.3%	-9%	0
65	COc1ccc(OCC(=O)NNC(=O)c2nn(C)c(=O)c3ccccc23)cc1	-6%	0.5%	-5%	5
66	CCc1ccc(NC(=O)C2CCN(S(=O)(=O)c3cnc[nH]3)CC2)cc1	-17%	1.7%	-1%	nt
67	Cc1ccsc1C(=O)NNC(=O)c1ccc(NS(=O)(=O)c2cccs2)cc1	-5%	?	nt	nt
68	Cc1cc(C(=O)OCC(=O)NCc2cccs2)c2ccccc2n1	13%	0.1%	-1%	6
69	Cc1cc(C)cc(N(C(C)C(=O)N2CCCC2)S(C)(=O)=O)c1 (stereo not given)	1%	-0.4%	6%	nt
70	CCC(C)C(NC(=O)C(C)NC(=O)CNC(=O)CNC(=O)OCc1ccccc1)C(=O)OC (stereo not given)	-7%	-0.7%	-5%	6
71	CCOc1ccc(N2C(=O)CC(NCC3CCCO3)C2=O)cc1 (stereo not given)	11%	1.7%	0%	5
72	CCOC(=O)C1CCN(C(=O)Cn2nc(C)n3c(cc4cc(C)ccc43)c2=O)CC1	1%	2.2%	-1%&-5%	nt
73	O=C(COc1ccc(-n2cnnn2)cc1)Nc1ccccc1Cl	-5%	-2.8%	-9%	nt
74	CCCN(Cc1ccccc1)S(=O)(=O)c1ccc(N2C(=O)CCC2=O)cc1	1%	?	-1%	3
75	Clc1ccc2c(N3CCOCC3)ccnc2c1	-10%	3.7%	-25%	nt
76	CC(C)Cn1cc(C(=O)NCC2CCCO2)c2c3ccccc3n(C)c2c1=O (stereo not given)	?	?	0%	-1
77	CCC1(CC)NC(=O)N(CC(=O)OCC(=O)Nc2sccc2C#N)C1=O	2%	0.9%	-6%	6
78	CCOc1ccc(CC(C(N)=O)C(N)=O)cc1	-10%	3.5%	4%	7
79	CN(CCC#N)C(=O)COC(=O)c1ccc2[nH]c3c(c2c1)CCCC3	0%	1.5%	3%	-3
80	CC(=O)Nc1ccc(C2=NNC(=NCC3CCCO3)SC2)cc1 (stereo not given)	-10%	-0.4%	1%	-10
81	O=C(NCc1ccco1)c1sc2cc(F)ccc2c1Cl	10%	1.5%	-56%	-12
82	Cc1ccc(S(=O)(=O)N(CC(=O)NCc2ccco2)c2ccccc2C)cc1	12%	-0.1%	5%	nt
83	Cc1cnc(C(=O)NCc2ccc(Cl)cc2Cl)cn1	0%	6.0%	-7%	-1
84	Cc1cc(C)n(-c2ccc(Cl)c(Cl)c2)n1	1%	-0.6%	-3%	1
85	O=C(c1cc(-c2cccc(Cl)c2)nc2ccccc12)N1CCCC1	9%	1.9%	4%	nt
86	Cc1ccc(S(=O)(=O)NCC2CCCO2)cc1[N+](=O)[O-] (stereo not given)	-7%	-3.4%	-10%	5
87	O=C(Nc1ccnn1C1CCN(Cc2ccc(CO)o2)CC1)c1ccccc1Cl	-14%	-4.9%	-3%	nt

Assay outcomes: PubChem, National Center for Advancing Translational Sciences (NCATS)
